Source: PubChem
GIRK2 activ: activators of human GIRK2 potassium channels; HEK293-GIRK2 thallium flux, Thallos fluorescence; calls only for hits at 25 µM; 63,000 compounds, 0.05% hits; AID 1259325;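 active means among the strongest 0.2% of first-round signals and kept after retests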;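 further: first round at about 10 µM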
Target sequence (P48051 whole entry, looked up): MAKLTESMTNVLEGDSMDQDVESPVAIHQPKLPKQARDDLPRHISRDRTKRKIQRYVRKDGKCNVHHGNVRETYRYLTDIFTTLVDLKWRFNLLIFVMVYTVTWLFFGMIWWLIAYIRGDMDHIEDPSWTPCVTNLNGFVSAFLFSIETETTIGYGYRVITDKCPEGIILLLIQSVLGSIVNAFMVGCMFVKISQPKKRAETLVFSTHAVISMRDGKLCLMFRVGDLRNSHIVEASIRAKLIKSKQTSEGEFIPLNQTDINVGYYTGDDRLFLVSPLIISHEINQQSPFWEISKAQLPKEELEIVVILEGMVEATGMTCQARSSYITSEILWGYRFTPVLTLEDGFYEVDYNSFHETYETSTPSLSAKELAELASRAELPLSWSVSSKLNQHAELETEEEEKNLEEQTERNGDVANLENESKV
Calls only; i = inactive. Only part of the results is shown; rates above refer to the full screens.

SMILES	GIRK2 activ
Cc1ccc(NC(=O)Cn2cccc(S(=O)(=O)N3CCCC3)c2=O)cc1C	i
CC(=O)c1cccc(S(=O)(=O)NCC2CCN(C(=O)c3cccnc3)CC2)c1	i
O=C(c1nc2ccccc2s1)N1CCC(Cn2cccn2)CC1	i
CCOC(=O)C1CCN(c2nc3ccccc3n3c(=O)n(CC(=O)NC4CCCCC4)nc23)CC1	i
COc1ccc(Cc2nnc3sc(/C=C/c4cccs4)nn23)cc1	i
Cc1cccc(C)c1OCCOCC(O)CN1CCN(C)CC1 (centres undefined)	i
Cc1nc(N2CCN(C(=O)C3CCCO3)CC2)cc(-n2cccc2)n1 (centres undefined)	i
Cc1ccc(-n2ncc3c(C)nnc(SCC(=O)Nc4ccccc4F)c32)cc1C	i
COc1ccc(OC)c2sc(N(Cc3ccncc3)C(=O)COc3ccc(Cl)cc3)nc12	i
CCc1c(-c2noc(-c3ccc4c(c3)OCO4)n2)nnn1-c1ccccc1	i
CCC(=O)N1CCN(c2nnc(SCC(=O)NC(C)C)s2)CC1	i
CNC(=O)c1sccc1N(C)S(=O)(=O)c1ccc(OC)cc1	i

The list goes on.
SMILES	GIRK2 activ
CCOc1ccc(N2CC(c3nc(-c4cccc(C)c4)no3)CC2=O)cc1 (centres undefined)	i
COc1cc2c(cc1OC)CN(C(=O)c1cc(-c3cccs3)[nH]n1)CC2	i
Cc1nnc(CNC(=O)CN2CCN(c3ccccc3)C2=O)o1	i
Cn1c(CN2CCN(CC(=O)Nc3ccc(OC(F)(F)F)cc3)CC2)nc2ccccc21	i
COC(=O)c1ccc(NC(=O)C(=O)NCC(c2cn(C)c3ccccc23)N(C)C)cc1 (centres undefined)	i
COc1ccc(CC(=O)N2CCC(c3nnc(C(C)C)o3)CC2)cc1	i
CS(=O)(=O)N1CCC(C(=O)Nc2ccccc2-c2ccc(=O)[nH]n2)CC1	i
CC(=O)N(CCn1cccn1)c1nc2c(Cl)cccc2s1	i
O=C(CSc1cc(-c2ccccc2)ncn1)Nc1ccc2c(c1)OCCO2	i
CCN(CC)C(=O)c1cnc2nc(C)ccc2c1Nc1cc(C)ccc1OC	i
O=C(CCCSc1ccc(NC(=O)c2cccs2)nn1)NCc1cccs1	i
COc1ccc(C(=O)N(C(=O)N2CCCCC2)c2ccc(Cl)cc2)cc1	i

The list goes on:
SMILES	GIRK2 activ
CN1CCN(S(=O)(=O)c2ccc(Cl)c3ccccc23)CC1	i
COc1ccc(CNC(=O)C(=O)NCC2OCCCN2S(=O)(=O)c2cc(C)ccc2C)cc1 (centres undefined)	i
O=C(Nc1cc(N2CCN(Cc3ccccc3)CC2)ncn1)c1ccc2ccccc2n1	i
CCCn1c(-c2cc(OC)c(OC)c(OC)c2)nc2nc3ccccc3nc21	i
Cc1[nH]c2cc(C(F)(F)F)ccc2c(=O)c1CN1CCOCC1	i
O=C1CC(c2nc3ccccc3n2Cc2ccccc2)CN1Cc1ccccc1 (centres undefined)	i
Cc1cc(NC(=O)COC(=O)c2ccco2)no1	i
O=C(NCC1CCCO1)C(=O)Nc1c2c(nn1-c1ccc(F)cc1)CSC2 (centres undefined)	i
O=S(=O)(NCCc1nc(C2CC2)cc(C(F)(F)F)n1)c1ccccc1F	i
CSc1cccc(NC(=O)c2sccc2S(=O)(=O)N(C)c2cccc(C)c2)c1	i
COc1cccc(-c2csc3c(=O)[nH]c(N4CCCC(C(=O)NC5CCCC5)C4)nc23)c1 (centres undefined)	i
COC(=O)Cn1c(=O)c2c(nc3n(C(C)c4ccccc4)c(C)cn23)n(C)c1=O (centres undefined)	i

Continued.
SMILES	GIRK2 activ
Cc1ccc(C)c(Cn2c(-n3nc(C)cc3C)nc3c2c(=O)n(CC(N)=O)c(=O)n3C)c1	i
N#C/C(=C\c1ccc(-c2ccc(Cl)cc2Cl)o1)c1ccccn1	i
COCCn1c(=O)c2c(nc(-n3nc(C)cc3C)n2CCC(C)C)n(C)c1=O	i
COc1cc(C(=O)NCCCN2CCN(c3ccccc3)CC2)cc(OC)c1OC	i
O=C(COc1ccccc1F)NCC#CCOc1ccc2c(c1)OCO2	i
Cc1noc(CNC(=O)C2CCN(C(=O)c3ccc4ncsc4c3)CC2)n1	i
Cc1cc(=O)n(CCNS(=O)(=O)c2ccc(F)c(Cl)c2)cn1	i
CCNC(=O)C1Cc2ccccc2N1C(=O)c1ccc(OC)cc1OC (centres undefined)	i
Cn1cc(-c2ccco2)nc1CCNS(=O)(=O)c1ccccc1F	i
COc1ccc(NC(=O)CS/C(C(C)=O)=C(\C)O)cc1	i
COc1ccc(Cn2c(-n3nc(C)cc3C)nc3c2c(=O)n(C)c(=O)n3C)cc1	i
O=C(CN1C(=O)c2ccccc2C1=O)Nc1ccc(-c2ccn[nH]2)cc1	i

Carrying on:
SMILES	GIRK2 activ
CCOc1ccc(C)cc1S(=O)(=O)Nc1ccc2c(c1)N(S(=O)(=O)CC)CCC2	i
Cn1nc(-c2ccc(F)cc2)cc1C(=O)NCCC(O)C(C)(C)C (centres undefined)	i
COc1ccc(OC)c(S(=O)(=O)Nc2cnc(-n3nc(C)cc3C)nc2)c1	i
COc1ccc(NC(=O)Cn2nc3nc(Nc4ccc(F)cc4)ccn3c2=O)cc1Cl	i
Cc1cc(=O)n(CC(=O)Nc2ccc(F)cc2)c(N)n1	i
O=C(c1cc2cc([N+](=O)[O-])ccc2s1)N(CCN1CCOCC1)c1nc2c(F)cccc2s1	i
COc1ccc(OCc2noc(CNC(=O)C3CC(=O)N(c4ccccc4)C3)n2)cc1 (centres undefined)	i
Cc1cc(NC(=O)NCC(C)C)n(-c2nc3c(c(=O)[nH]2)CCCC3)n1	i
Cc1cc(-c2nnc(NC(=O)c3cc4cc([N+](=O)[O-])ccc4s3)o2)n(C)n1	i
O=C(CCCl)NCc1ccc2c(c1)OCO2	i
O=C(Nc1ccc(Cl)c2ncsc12)c1ccc2ncsc2c1	i
Cc1ccc(Cl)cc1N1CCN(C(=O)C2CCN(c3ncnc4c3oc3ccccc34)CC2)CC1	i

Next part:
SMILES	GIRK2 activ
CSc1ccccc1NC(=O)c1ccc(-n2ccnc2)nn1	i
Cn1c(CN2CCN(C(=O)CN3C(=O)CCC3=O)CC2)nc2ccccc21	i
O=C1O/C(=C/Br)CCC1c1cccc2ccccc12 (centres undefined)	i
Cc1ccc2c(=O)c(-c3nc(-c4cccc(F)c4)no3)cn(CC(=O)NC3CCc4ccccc43)c2n1 (centres undefined)	i
O=C(Nc1ccc2c(c1)Cc1ccccc1-2)c1coc(NC(=O)C2CC2)n1	i
CCOc1cn(C)c(C(=O)Nc2nccs2)cc1=O	i
Cc1ccc2oc(=O)c(-c3nc4ccc([N+](=O)[O-])cc4[nH]3)cc2c1	i
O=c1c2cn[nH]c2nc(SCc2nc(-c3ccc(Br)cc3)no2)n1-c1ccccc1	i
COCCN1CCC(CNC(=O)c2cc(C)on2)CC1	i
COc1ccccc1/C=C/C(=O)c1cc(C)ccc1O	i
O=C(COc1ccccc1F)N(CCc1cccs1)Cc1ccco1	i
COc1ccc(Br)cc1S(=O)(=O)N1CCN(S(=O)(=O)c2cc(Br)ccc2OC)CC1	i

The listing continues:
Structure	GIRK2 activ
Cc1cc(N2CCN(C(=O)NCc3ccc(Cl)cc3)CC2)ncn1	i
CCOC(=O)N1CCC(NC(=O)c2cc(=O)c(OCc3cccc(OC)c3)cn2C)CC1	i
O=S(=O)(c1cccnc1)N1CCC2(CC1)OCCCO2	i
COCCN1CCC(NC(=O)C(c2ccccc2)c2ccccc2)CC1	i
CC(C)OC(=O)c1ccc(N/C=C(\C#N)c2nc(-c3ccccc3)cs2)cc1	i
COCC(=O)Nc1ccc(-n2nnc(C(=O)N3CCCC3)n2)cc1	i
O=C(c1ccc(S(=O)(=O)NCc2ccco2)o1)N1CCCC1	i
CCOc1ccc(Nc2c(C(=O)N3CCSCC3)cnc3nc(C)ccc23)cc1	i
CCc1noc(-c2cnc3nc(C)ccc3c2Nc2ccc(C(=O)OC)cc2)n1	i
CCc1cc(CC)n(-c2nc3c(c(=O)n(CC(=O)C(C)(C)C)c(=O)n3C)n2C)n1	i
CC1CCCN(CC(O)COC23CC4CC(CC(C4)C2)C3)C1 (centres undefined)	i
COc1cccc(Cn2c(=S)[nH]c3c(oc4ccccc43)c2=O)c1	i
O=C(NCCc1ccccc1)NCCN1CCC(c2cccs2)CC1	i
COc1ccc(NC(=O)Nc2cnc(N(C)C)nc2)c(C)c1	i
Cc1nc(-n2nc(-c3cccs3)cc2NC(=O)C(C)(C)CCl)[nH]c(=O)c1Cc1ccccc1	i

Copied from the entries so far (16 entries):
Structure	GIRK2 activ
Cc1ccc(NC(=O)Cn2cccc(S(=O)(=O)N3CCCC3)c2=O)cc1C	i
CC(=O)c1cccc(S(=O)(=O)NCC2CCN(C(=O)c3cccnc3)CC2)c1	i
O=C(c1nc2ccccc2s1)N1CCC(Cn2cccn2)CC1	i
CCOC(=O)C1CCN(c2nc3ccccc3n3c(=O)n(CC(=O)NC4CCCCC4)nc23)CC1	i
COc1ccc(Cc2nnc3sc(/C=C/c4cccs4)nn23)cc1	i
Cc1cccc(C)c1OCCOCC(O)CN1CCN(C)CC1 (centres undefined)	i
Cc1nc(N2CCN(C(=O)C3CCCO3)CC2)cc(-n2cccc2)n1 (centres undefined)	i
Cc1ccc(-n2ncc3c(C)nnc(SCC(=O)Nc4ccccc4F)c32)cc1C	i
COc1ccc(OC)c2sc(N(Cc3ccncc3)C(=O)COc3ccc(Cl)cc3)nc12	i
CCc1c(-c2noc(-c3ccc4c(c3)OCO4)n2)nnn1-c1ccccc1	i
CCC(=O)N1CCN(c2nnc(SCC(=O)NC(C)C)s2)CC1	i
CNC(=O)c1sccc1N(C)S(=O)(=O)c1ccc(OC)cc1	i
CCOc1ccc(N2CC(c3nc(-c4cccc(C)c4)no3)CC2=O)cc1 (centres undefined)	i
COc1cc2c(cc1OC)CN(C(=O)c1cc(-c3cccs3)[nH]n1)CC2	i
Cc1nnc(CNC(=O)CN2CCN(c3ccccc3)C2=O)o1	i
Cn1c(CN2CCN(CC(=O)Nc3ccc(OC(F)(F)F)cc3)CC2)nc2ccccc21	i

Remaining list, next part.
Structure	GIRK2 activ
CC(C)Cn1c(-c2ccc([N+](=O)[O-])cc2)nc2c(c(=O)c3ccccc3n2C)c1=O	i
COc1ccc(F)cc1S(=O)(=O)N1CCC(Cn2nc(C)cc2C)CC1	i
CCCCCNC(=O)C1CCN(c2cc(Sc3cc(C)ccc3C)ncn2)CC1	i
O=C(CN1CCc2nc(NC(=O)c3cccs3)sc2C1)NCC1CCCO1 (centres undefined)	i
O=C(NCCc1nc2c(c(C(F)(F)F)n1)CCCC2)c1ccco1	i
COc1cc(NC(=O)CN2N=NC3C(=O)N(c4ccc(Cl)cc4)C(=O)C32)cc(OC)c1 (centres undefined)	i
C=CCSc1nc(N)c2c(C)c(C(=O)O)sc2n1	i
CCCOC(=O)c1ccc(N=Nc2ccc(O)c(CC(=O)O)c2)cc1	i
O=C(c1cc(=O)c(OCc2ccc(F)cc2)co1)N1CCCC1	i
CC(Oc1ccccc1F)C(=O)NCCOc1ccc2c(c1)OCO2 (centres undefined)	i
COCC(=O)NCC(Cc1cccc(F)c1)N1CCNC1=O (centres undefined)	i
CCOc1ccccc1C(=O)NCc1n[nH]c(=O)c2ccccc12	i
Cc1cc(C)n(-c2nc3c(c(=O)n(CC(N)=O)c(=O)n3C)n2CCc2ccccc2)n1	i
Cc1ccccc1Cn1cnc2c(-c3cccc(F)c3)csc2c1=O	i
COc1ccc2cc(-c3nc4ccc(C(=O)O)cc4[nH]3)c(=O)oc2c1	i

Later entries:
Structure	GIRK2 activ
CN(C)S(=O)(=O)c1ccc(C(=O)Nc2cccc3ccc(-n4cccc4)nc23)cc1	i
CC(C)Oc1ccc(-c2noc(CCn3nc(-c4ccc(F)cc4)ccc3=O)n2)cc1	i
O=C(c1cc2ccccc2o1)N1CCC(CNS(=O)(=O)Cc2cc(F)cc(F)c2)CC1	i
CCOc1ccc(N2CC(C)Cn3c2nc2c3c(=O)n(CC(N)=O)c(=O)n2C)cc1 (centres undefined)	i
CCCCS(=O)(=O)N1CCC(c2nnc(-c3ccco3)s2)CC1	i
O=c1c(-c2ccc(Cl)cc2)coc2c3c(ccc12)OCN(c1cccnc1)C3	i
COc1ccc(Cl)cc1NC(=O)Cn1c(C)nc2c(-c3ccncc3)nsc2c1=O	i
Cc1ccc(-c2cc(CCC(=O)O)nn2-c2ccc(S(N)(=O)=O)cc2)cc1	i
O=C(NC1CCCCC1)c1nnn(-c2ccccc2Cl)c1-c1ccncc1	i
COc1ccc(NC(=O)CCn2cnc3c([nH]c4ccc(C)cc43)c2=O)cc1OC	i
Cc1ccc(-n2nnc(-c3nc(-c4ccccc4C)no3)c2C)cc1F	i
CC(C)c1nccn1CC1CCN(C(=O)Cc2c(F)cccc2Cl)CC1	i
COC(=O)c1ccc(NC(=O)CSc2nnc(C)c3cnn(-c4ccccc4)c23)cc1	i
COc1ccc(S(=O)(=O)N2CCCOC2CNC(=O)C(=O)NCc2ccc(C)cc2)cc1 (centres undefined)	i
O=C(CSC1CCCC1)NCC(O)(c1ccccc1)C(F)(F)F (centres undefined)	i

(further entries)
Structure	GIRK2 activ
Cc1ccc(-c2nc(C)cc(OCC(=O)NCc3ccccc3)n2)cc1	i
Cc1noc(CNC(=O)c2coc(NC(=O)c3cc(C)on3)n2)n1	i
O=c1[nH][nH]c(=O)c2ncccc12	i
Cc1cc(C)n(-c2ccc(=O)n(CC(=O)NCCNC(=O)c3ccc(NC(=O)C4CC4)cc3)n2)n1	i
O=C(CN1CCN(c2ccc3c(c2)OCCO3)C1=O)Nc1nc(-c2cccnc2)cs1	i
O=C(CNc1ccccc1)Nc1ncc(Cc2ccccc2F)s1	i
CCOC(=O)c1cnn2ccc(NC(=O)c3cc(=O)c4ccccc4o3)cc12	i
CC(=O)c1cccc(NC(=O)C2CSCCC(=O)N2)c1 (centres undefined)	i
COc1ccccc1C1=NS(=O)(=O)c2cc(S(=O)(=O)N3CCOCC3)ccc2N1	i
COc1ccc(N2C(=O)C3N=NN(CC(=O)Nc4cc(Cl)ccc4OC)C3C2=O)cc1 (centres undefined)	i
O=C(NCc1ccccc1C(F)(F)F)C1CCCN(c2ncnc3c2oc2ccccc23)C1 (centres undefined)	i
CN(C)C(CNC(=O)C(=O)Nc1ccc(F)c(Cl)c1)c1ccc2c(c1)CCO2 (centres undefined)	i
Cc1cc(O)c(C(c2ccc(O)cc2)c2c(O)cc(C)n(CCO)c2=O)c(=O)n1CCO	i
